High-throughput results from PubChem BioAssay.
Biofilm kill mix – mixture kills Candida albicans biofilm cells. C. albicans biofilm persisters + clotrimazole, fluorescence viability; primary screen in compound mixtures of four per well. inhibition, % at 7.6 µM. 120,000 compounds, 0.02% hits. AID 1242;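 active means inhibition above 30.3% in the primary screen of four-compound pools, then above 30% when the compound was retested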;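 further: compounds exposed to preformed 24 h biofilms for 48 h; the number belongs to the whole pool; some results filed as inactive read as strong as hits; inactives centre near 12; 0% = biofilm with clotrimazole alone and 100% = kill control; retested singly at about 60 µM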
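System: C. albicans CAF4-2 wild-type biofilms; Medium: RPMI/MOPS medium, pH 7.0; Reagent: Clotrimazole, 50 µg/mL; Times: biofilm formation 24 h, compound exposure 48 h, 37 °C; Detection: 2-h Alamar Blue fluorescence, 535/590 nm excitation/emission; Evaluation: percent inhibition of biofilm viability.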
Active calls of the source: *. This is a subset; count on the stated rates, not on these rows.

Preview (13 entries):
Screening COc1ccc(NC(=O)CCC(=O)c2cccs2)cc1S(=O)(=O)Nc1ccc(Cl)cc1 returned Biofilm kill mix 16.
For CCOc1cc(/C=N/NC(=O)c2cccnc2)ccc1O the results were Biofilm kill mix 19.
CN1CCN(C(=O)CSc2nc3ccc(NC(=O)c4ccccc4F)cc3s2)CC1 was read as Biofilm kill mix 4.
`CCN(CC)CCNC(CC(=O)Nc1ccc(Cl)cc1Cl)C(=O)O` (stereo not given) gave Biofilm kill mix 9.
Screening CC(=O)C1=C(C)N2CCN=C2S1 returned Biofilm kill mix 10.
`COc1ccccc1NC(=O)C1=C(C)NC(=O)NC1c1ccccc1[N+](=O)[O-]` (stereo not given) gave Biofilm kill mix 16.
S=C(NCc1ccco1)Nc1cc(-c2ccccc2)[nH]n1 was read as Biofilm kill mix 13.
Screening COC(=O)C(C(=O)OC)c1ccc(-n2cccc2)cc1 returned Biofilm kill mix -33.
`CN(CCCC[C@H](CNCc1ccc(-c2ccccc2)cc1)N1C[C@H](c2ccccc2)N(CCc2ccc(Cl)c(Cl)c2)C(=O)C1=O)Cc1ccc(-c2ccccc2)cc1` gave Biofilm kill mix 12.
For CC(C)[C@H](NS(=O)(=O)c1ccc2c(c1)OCCO2)C(=O)OCC(=O)Nc1cc(Cl)ccc1Cl the results were Biofilm kill mix 25.
`CCOC(=O)c1ccc(CNCc2ccc(Br)cc2)cc1` gave Biofilm kill mix 8.
For CC(C)CCNC(=O)C1CCCN1C(=O)NC1CCCCC1 (stereo not given) the results were Biofilm kill mix 8.
Screening Cn1c(N)c(C(=O)c2ccc(F)cc2F)c(=O)n(C)c1=O returned Biofilm kill mix 7.

Results (from the top)
Screening COc1ccc(NC(=O)CCC(=O)c2cccs2)cc1S(=O)(=O)Nc1ccc(Cl)cc1 returned Biofilm kill mix 16.
For CCOc1cc(/C=N/NC(=O)c2cccnc2)ccc1O the results were Biofilm kill mix 19.
CN1CCN(C(=O)CSc2nc3ccc(NC(=O)c4ccccc4F)cc3s2)CC1 was read as Biofilm kill mix 4.
`CCN(CC)CCNC(CC(=O)Nc1ccc(Cl)cc1Cl)C(=O)O` (stereo not given) gave Biofilm kill mix 9.
Screening CC(=O)C1=C(C)N2CCN=C2S1 returned Biofilm kill mix 10.
`COc1ccccc1NC(=O)C1=C(C)NC(=O)NC1c1ccccc1[N+](=O)[O-]` (stereo not given) gave Biofilm kill mix 16.
S=C(NCc1ccco1)Nc1cc(-c2ccccc2)[nH]n1 was read as Biofilm kill mix 13.
Screening COC(=O)C(C(=O)OC)c1ccc(-n2cccc2)cc1 returned Biofilm kill mix -33.
`CN(CCCC[C@H](CNCc1ccc(-c2ccccc2)cc1)N1C[C@H](c2ccccc2)N(CCc2ccc(Cl)c(Cl)c2)C(=O)C1=O)Cc1ccc(-c2ccccc2)cc1` gave Biofilm kill mix 12.
For CC(C)[C@H](NS(=O)(=O)c1ccc2c(c1)OCCO2)C(=O)OCC(=O)Nc1cc(Cl)ccc1Cl the results were Biofilm kill mix 25.
`CCOC(=O)c1ccc(CNCc2ccc(Br)cc2)cc1` gave Biofilm kill mix 8.
For CC(C)CCNC(=O)C1CCCN1C(=O)NC1CCCCC1 (stereo not given) the results were Biofilm kill mix 8.
Screening Cn1c(N)c(C(=O)c2ccc(F)cc2F)c(=O)n(C)c1=O returned Biofilm kill mix 7.
NS(=O)(=O)c1cccc(NC(=O)CSc2nc3ccc(Cl)cc3[nH]2)c1 was read as Biofilm kill mix 17.
Screening COc1ccc(CCN=C(N)NS(=O)(=O)c2cccs2)cc1 returned Biofilm kill mix 13.
For Cc1ccc(N2C(=O)C3CCC(C)(C2=O)C3(C)C)cc1 (stereo not given) the results were Biofilm kill mix 17.
For Oc1ccc(C2C=C(c3ccc(F)cc3)Nc3ncnn32)cc1 (stereo not given) the results were Biofilm kill mix 9.
For CCCC(=Nc1ccccc1OC)C1=C(O)CC(c2ccccc2)CC1=O (stereo not given) the results were Biofilm kill mix 17.
`CN(C)c1cccc(C(=O)NNC(=S)NC2CCCC2)c1` gave Biofilm kill mix 11.
`O=C(O)c1cc(N2C(=O)CCC2=O)ccc1NCc1cccnc1` gave Biofilm kill mix 20.
Screening CCOc1[nH]n(-c2ccccc2)c(=O)c1C=Nc1ccc(OC)cc1 returned Biofilm kill mix 8.
`O=C(OCc1ccc([N+](=O)[O-])cc1)c1ccc2ccccc2n1` gave Biofilm kill mix 5.
`CC(C)=CCN1CCN(Cc2cn[nH]c2C2CCCCC2)CC1CCO` (stereo not given) gave Biofilm kill mix 13.
Screening O=C(N/N=C/c1cccnc1)c1ccc(S(=O)(=O)N2CCCCCC2)cc1 returned Biofilm kill mix 30.
`COc1ccc(OC)c(-n2nnnc2SCC(=O)N2CCN(C(=O)c3ccco3)CC2)c1` gave Biofilm kill mix 25.
Screening COc1cccc(NC(=O)Nc2ccc(Cc3ccncc3)cc2)c1 returned Biofilm kill mix 18.
For CCN(CC)S(=O)(=O)c1cccc(NC(=O)COc2ccc(Cl)cc2Br)c1 the results were Biofilm kill mix 12.
For CCOC(=O)CC(NC(=O)C1c2ccccc2Oc2ccccc21)c1ccccc1Cl (stereo not given) the results were Biofilm kill mix 16.
C=CCNC(=O)CC1C(=O)NCCN1Cc1ccc(-c2ccccc2)cc1 (stereo not given) was read as Biofilm kill mix -2.
For COc1ccc(C(=O)NCC(=O)OCC(=O)c2ccc(Cl)cc2)cc1OC the results were Biofilm kill mix 10.
Screening COc1ccccc1/C=C/C(=O)NCc1ccccn1 returned Biofilm kill mix -8.
CCOC(=O)c1ccc(NC(=S)N2CCCC(C)C2)cc1 (stereo not given) was read as Biofilm kill mix 0.
For CCc1cccc2c(C(=O)C(F)(F)F)cn(CC(=O)N3CCOCC3)c12 the results were Biofilm kill mix 6.
For Cc1nc2ccccc2c(=O)n1/N=C/c1cn[nH]c1-c1ccccc1 the results were Biofilm kill mix 15.
CCCSc1cc(NCCOC(=O)CCC)c([N+](=O)[O-])c2nonc12 was read as Biofilm kill mix 14.
Cc1cccc(NC(=O)COC(=O)c2ccc3c(=O)n4c(nc3c2)CCC4)c1 was read as Biofilm kill mix 17.
For Cc1ccc(NC(=O)CN2CCc3ccccc3C2)cc1F the results were Biofilm kill mix 20.
CNC(=O)c1c(C)nn(-c2ccc(F)c(Cl)c2)c1-c1cc(C)on1 was read as Biofilm kill mix 14.
Cc1ccc(NC(=O)C(=O)NCc2ccc(/C=C(/C#N)C(=O)NCc3cccnc3)o2)cc1C was read as Biofilm kill mix 11.
`COc1ccc(OC(C)C(=O)Nc2ccccc2F)cc1` (stereo not given) gave Biofilm kill mix 12.
`CC(C)c1csc(CN2CCN(Cc3ccccc3)C(CCO)C2)n1` (stereo not given) gave Biofilm kill mix 16.
Cc1cc(C(C)(C)C)cc(C)c1S(=O)(=O)N1CC(=O)Nc2ccccc21 was read as Biofilm kill mix 7.
For Cc1ccc(C(=O)COC(=O)c2cn3ccccc3n2)cc1 the results were Biofilm kill mix 15.
O=C(OCn1nnc2ccccc2c1=O)C12CC3CC(CC(O)(C3)C1)C2 was read as Biofilm kill mix 8.
`COc1ccc2c(CC(=O)OCC(=O)NC(N)=O)coc2c1` gave Biofilm kill mix 18.
CCCCNc1nc2ccccc2nc1Cl was read as Biofilm kill mix 7.
For O=c1c([N+](=O)[O-])c[nH]c2ccccc12 the results were Biofilm kill mix -9.
`CCCN=C1NC(=O)C(CC(=O)NCCc2ccc(OC)c(OC)c2)S1` (stereo not given) gave Biofilm kill mix 18.
`COc1ccccc1C(=O)NNC(=O)C(=O)NC(C)(C)C` gave Biofilm kill mix 10.
Screening Cc1[nH][nH]c(=O)c1C(c1c(C)[nH][nH]c1=O)c1cn(Cc2ccc(Cl)c(Cl)c2)c2ccccc12 returned Biofilm kill mix 8.
Screening COc1cccc(CNn2cn[nH]c2=S)c1OCc1ccccc1 returned Biofilm kill mix 11.
COc1nccc(C(F)(F)F)c1C(=O)NC(=O)Nc1ccccc1 was read as Biofilm kill mix 13.
`CCCN(CCC)CCCNc1ccc(C(=O)Nc2cccc(OC)c2)cc1[N+](=O)[O-]` gave Biofilm kill mix 21.
Screening C=CCNCCOCCOc1ccccc1-c1ccccc1 returned Biofilm kill mix 5.
Cc1cc(C(=O)N/N=C\C(Br)=C\c2ccccc2)c(C)o1 was read as Biofilm kill mix 14.
For COc1ccc(NS(=O)(=O)c2cc(NC(=O)c3cnc(C)cn3)ccc2N2CCCCC2)cc1 the results were Biofilm kill mix 17.
N#CCCn1nc(-c2ccc(Cl)cc2)cc1Nc1ccccc1NC(=O)C(F)(F)F was read as Biofilm kill mix 5.
For Cc1cc2ccccn2c1C(=O)c1ccc(S(=O)(=O)N(C)C)cc1 the results were Biofilm kill mix 8.
Screening Cn1cnnc1SCC(=O)c1cc2ccccc2o1 returned Biofilm kill mix 6.
CS(=O)(=O)N1CCN(c2ccccc2[N+](=O)[O-])CC1 was read as Biofilm kill mix -10.
`CC(=O)Nc1ccc(NC(=O)c2cccc3c2-c2ccccc2C3=O)cc1` gave Biofilm kill mix 9.
`CCCCC(=O)/C=C/n1c(=S)oc2ccccc21` gave Biofilm kill mix 14.
Screening COC(=O)c1ccccc1OCCCN(C)C returned Biofilm kill mix 15.
Screening Nc1ccc(-c2ccc(N)c(C(=O)O)c2)cc1C(=O)O returned Biofilm kill mix 15.
Cc1cc(C(=O)N/N=C/c2ccc(O)c([N+](=O)[O-])c2)n[nH]1 was read as Biofilm kill mix 25.
For O=C(NCCCO)C(=O)NCCc1ccc(Cl)cc1 the results were Biofilm kill mix 12.
`COc1ccc(CN2CCS(=O)(=O)CC2)cc1OC` gave Biofilm kill mix 6.
Screening COc1ccc(C(CCN2CCCCC2)c2c(O)cc(OC)cc2OC)cc1 (stereo not given) returned Biofilm kill mix 9.
For O=C(O)C1CC=CCC1C(=O)Nc1ccc(Oc2ccc(Cl)cc2)cc1 (stereo not given) the results were Biofilm kill mix 8.
`Cc1cccc(C)c1OCC(=O)Nc1ccc(N2CCOCC2)cc1` gave Biofilm kill mix 14.
`CCN(CC)S(=O)(=O)c1cccc(C(=O)Nc2cc(C)nn2-c2ccccc2)c1` gave Biofilm kill mix 7.
`CCOc1ccccc1-c1ccc(C(=O)NCc2ccccc2)o1` gave Biofilm kill mix 8.
Screening Cc1ccc2[nH]c(=O)c(C3=NN(C(=O)CCC(=O)O)C(c4cccs4)C3)c(-c3ccccc3)c2c1 (stereo not given) returned Biofilm kill mix 22.
CCCCNC(=O)c1cc2c(C)cc(C)cc2[nH]1 was read as Biofilm kill mix 18.
`Cc1nc2ccccc2cc1C(=O)N/N=C/c1ccc([N+](=O)[O-])cc1` gave Biofilm kill mix 7.
For COc1ccc(NC(=O)c2ccc(OC(F)F)cc2)cc1Cl the results were Biofilm kill mix -13.
For Cc1nc(-c2ccccc2OC(F)(F)F)[nH]c(=O)c1Cl the results were Biofilm kill mix 19.
Screening CSC(=S)N/N=C(\C)c1ccc(Br)cc1 returned Biofilm kill mix 25.
Screening CC(=O)OCCNc1cc(SCc2ccco2)c2nonc2c1[N+](=O)[O-] returned Biofilm kill mix 20.
For Cc1cccc(C)c1-n1c(C)cc(/C=C2\NC(=O)NC2=O)c1C the results were Biofilm kill mix 12.
`COc1ccccc1Oc1c(C)oc2c(CN3CCOCC3)c(O)ccc2c1=O` gave Biofilm kill mix 23.
Screening Cc1nn(C)c(C(=O)N2CCc3ccccc32)c1Cl returned Biofilm kill mix 5.
O=C(Nc1cccc(S(=O)(=O)N2CCOCC2)c1)c1cnn2c(C(F)F)cc(-c3ccccc3)nc12 was read as Biofilm kill mix 13.
Screening CC(=O)N(CCS(=O)(=O)c1ccc(Cl)cc1)Cc1cccs1 returned Biofilm kill mix 29.
Screening CCOC(=O)N1CCN(c2c(NCCc3ccc(C)cc3)c(=O)c2=O)CC1 returned Biofilm kill mix 22.
CC(=O)c1cccc2c(O)c(C3=Nc4ccccc4C3=O)[nH]c12 was read as Biofilm kill mix 10.
`CCCN(CCC)c1c([N+](=O)[O-])c(=O)oc2ccccc12` gave Biofilm kill mix 8.
`CN(Cc1nc(-c2cnccn2)no1)Cc1n[nH]c2c1CCCC2` gave Biofilm kill mix 11.
For COc1ccc(C(NC(=O)c2cccc(F)c2)c2ccccc2)cc1 (stereo not given) the results were Biofilm kill mix 8.
Screening COC(=O)c1sc(NC(=O)CSc2nnc(Cn3nnc4ccccc43)n2C)nc1C returned Biofilm kill mix 19.
For Cc1oc2ccc(O)cc2c1C(=O)OC(C)C the results were Biofilm kill mix 17.
`CCn1c(Cc2cccs2)nnc1SCC(=O)NC(C)(C)C` gave Biofilm kill mix 16.
O=C(NCc1ccncc1)c1ccc(Oc2ccccc2)cc1 was read as Biofilm kill mix 0.
`CCOC(=O)c1ccc(-n2nc(C)cc2C)cc1` gave Biofilm kill mix 21.
Screening COc1cc(/C=C(/C#N)C(=O)Nc2ccccc2)ccc1OCc1ccc(C(=O)O)cc1 returned Biofilm kill mix 20.
CC(OC(=O)Cc1coc2ccc3ccccc3c12)C(=O)Nc1ncc(Cl)cc1Cl (stereo not given) was read as Biofilm kill mix 13.
`COc1cccc(C(=O)NC(=S)Nc2ccc([N+](=O)[O-])cc2C)c1` gave Biofilm kill mix 20.
`C#Cc1cccc(NC(=O)C2CCN(C(C)=O)CC2)c1` gave Biofilm kill mix 15.
`COc1ccc2cc(C(=O)C3CCCN(Cc4cnc(C)s4)C3)ccc2c1` (stereo not given) gave Biofilm kill mix 8.
Screening COC(=O)CCC(=O)OC1(C)C(=O)C=C2C=C(C3CC3)N(C3CC3)C=C2C1=O (stereo not given) returned Biofilm kill mix 18.
Screening O=C(NC(=S)Nc1ccc(F)c([N+](=O)[O-])c1)c1ccccc1F returned Biofilm kill mix -1.
Cn1cc(/C=C2\SC(=S)N(N3CCOCC3)C2=O)c2ccccc21 was read as Biofilm kill mix 23.
For Cc1nc(-c2noc(-c3ccc(Cl)cc3)n2)c(C(F)(F)F)o1 the results were Biofilm kill mix 14.
`CCN(CC)c1cc(C)c2cc(NC(=O)c3cccs3)ccc2n1` gave Biofilm kill mix 4.
